# HIV TAR-Tat: TAR RNA-Tat peptide displacers, HIV-1, primary screen, biochemical, FRET, FAM/TAMRA-labeled Tat; HIV-1 TAR RNA, Tat peptide displacement FRET; active compounds read high; z-score (no concentration beside the values); 0.6% of 100,000 active; AID 1259389, 2018;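 further: score is relative to mean and SD of negative controls; some compounds called inactive have numbers as strong as hits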
# CDC25B-CDK2 inh: primary biochemical HTRF screen for blockers of M-phase inducer phosphatase 2 binding to CDK2/cyclin A | P30305+P24941 | 0.72% of 94,000 active | z-score (concentration not given with the values) | HTRF CDC25B-CDK2/CyclinA binding, anti-His/anti-Flag; active compounds read high;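 further: score is relative to mean and SD of negative controls; strong numbers were not always called active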
# * = called active by the depositor; x = not tested or not shown.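 How the source made its calls: active means z-score from 3 up in half or more of its runs; inactive means the rest.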
[1] CCOc1cc(C2c3c(-c4ccccc4O)n[nH]c3C(=O)N2CC2CCCO2)ccc1O (configuration not stated)
[2] COc1ccccc1-n1c(=S)[nH]c2nc3c(cc2c1=O)CCCC3
[3] COc1ccc(C)cc1NS(=O)(=O)c1cc(-c2cc(C)no2)ccc1C
[4] Cn1ncc(NC(=O)O/N=C(\N)c2cc(C(F)(F)F)cc(C(F)(F)F)c2)c1-n1cccc1
[5] CCOC(=O)c1c(-c2ccc(C)cc2)csc1NC(=O)c1cc(=O)c2cc(C)ccc2o1
[6] CCN(CC)C(=O)c1sc2nc(N3CCCC3)c3c(c2c1N)CCCC3
[7] COc1ccc(-c2cccc(NS(=O)(=O)c3c(C)cc(C)cc3C)c2)nn1
[8] CC1CC(=O)Nc2cc(S(=O)(=O)Nc3cccc4c3CCCC4)ccc2S1 (configuration not stated)

compound no.	1	2	3	4	5	6	7	8
HIV TAR-Tat	1.1	x	0.23	x	-2.2	0	0.73	1.4
CDC25B-CDK2 inh	1.4	-0.13	x	-3.4	-0.84	0.53	x	x

[9] COc1ccc(OC)c(NS(=O)(=O)c2ccc3c(c2)NC(=O)C(C)CS3)c1 (configuration not stated)
[10] CC12CC3CC(C)(C1)CC(C(=O)NO)(C3)C2
[11] CC(C(=O)N1CCN(c2ccccc2)CC1)n1sc2ccccc2c1=O (configuration not stated)
[12] COC(=O)C1=C(C)NC2=C(C(=O)CC(C)(C)C2)C1c1ccc(OC(C)=O)c(OC)c1 (configuration not stated)
[13] Cn1cc(-c2cc3n(n2)CCC(=O)N3CCCC(=O)NCCC2=CCCCC2)c2ccccc21
[14] CC1(C)CC(=O)C2=C(C1)c1c(ccc3ccccc13)NC2c1ccc(O)c([N+](=O)[O-])c1 (configuration not stated)
[15] CN(Cc1ccccc1)S(=O)(=O)c1cc2c(cc1Cl)NC(=O)CO2
[16] CC1SC(=S)N(c2ccc(N(C)C)cc2)C1=O (configuration not stated)

compound no.	9	10	11	12	13	14	15	16
HIV TAR-Tat	1.9	x	1.8	1.7	1.5	x	-3.1	-1.1
CDC25B-CDK2 inh	x	-2.1	-1.6	0.49	x	-0.96	x	-1.3

[17] O=C(Cn1c(=O)c2cccn2c2ccc(F)cc21)N1CCCCC1
[18] O=C(Cn1c(=O)oc2cc(S(=O)(=O)N3CCCC3)ccc21)N1CCN(c2ccccc2F)CC1
[19] C=CCn1c(N)c(C(=O)N2CCN(C)CC2)sc1=S
[20] CCOC(=O)c1c(NC(=O)c2ccncc2)sc2c1CC(C)(C)OC2
[21] Cc1ccc2nsnc2c1S(=O)(=O)N1CCCC1C(=O)O (configuration not stated)
[22] CCCc1[nH]nc2c1C(c1ccc(O)c(OCC)c1)C(C#N)=C(N)O2 (configuration not stated)
[23] COc1ccc(C(C)=O)cc1CSc1nccc(=O)[nH]1
[24] Cc1oc(-c2ccc(Cl)cc2)cc1C(=O)/C(C#N)=C/c1cccs1

compound no.	17	18	19	20	21	22	23	24
HIV TAR-Tat	2.1	1.2	x	2.1	1.7	0.97	x	x
CDC25B-CDK2 inh	x	x	-2	-0.11	-0.5	-1.3	-1.4	-0.02

# Sorted by SMILES length (smallest number first): four of the compounds above.
[23] COc1ccc(C(C)=O)cc1CSc1nccc(=O)[nH]1
[21] Cc1ccc2nsnc2c1S(=O)(=O)N1CCCC1C(=O)O (configuration not stated)
[24] Cc1oc(-c2ccc(Cl)cc2)cc1C(=O)/C(C#N)=C/c1cccs1
[22] CCCc1[nH]nc2c1C(c1ccc(O)c(OCC)c1)C(C#N)=C(N)O2 (configuration not stated)

compound no.	23	21	24	22
HIV TAR-Tat	x	1.7	x	0.97
CDC25B-CDK2 inh	-1.4	-0.5	-0.02	-1.3

# New compounds follow.
[25] Cn1cccc1Cc1nnc(SCC(N)=O)n1CCc1ccccc1
[26] COc1nccn(-c2cccc(Cl)c2)c1=O
[27] C=CCc1c(C)c(C#N)c2[nH]c3ccccc3n2c1=O
[28] O=C(c1cccs1)N1CCN(c2ccc(Cl)cc2)CC1
[29] COCCOC(=O)C1=C(C)NC2=C(C(=O)CC(c3cccs3)C2)C1c1ccc(F)cc1 (configuration not stated)
[30] CCOc1ccc2nc(NC3=NCN(CC4CCCO4)CN3)nc(C)c2c1 (configuration not stated)
[31] CC(=O)Oc1ccc2oc(C)c(C(=O)O)c2c1
[32] Cc1ccc(C2C(=O)N(C3CCCCCC3)CC(=O)N2C(C)C)cc1 (configuration not stated)

compound no.	25	26	27	28	29	30	31	32
HIV TAR-Tat	2.5	0.54	x	1.7	0.42	1.8	2.5	x
CDC25B-CDK2 inh	0.19	-0.74	-0.74	x	1.1	1.7	-2	-0.41

# Three records drawn at random from those above, as already listed:
[26] COc1nccn(-c2cccc(Cl)c2)c1=O
[31] CC(=O)Oc1ccc2oc(C)c(C(=O)O)c2c1
[28] O=C(c1cccs1)N1CCN(c2ccc(Cl)cc2)CC1

compound no.	26	31	28
HIV TAR-Tat	0.54	2.5	1.7
CDC25B-CDK2 inh	-0.74	-2	x

# The list continues:
[33] CNC(=O)NNC(=O)c1csc(-c2ccc(C(F)(F)F)cc2Cl)n1
[34] CCS(=O)(=O)c1ccc(O)c(NC(=O)c2nccnc2C(=O)O)c1
[35] COc1ccc(C2CC(c3ccc(Br)cc3)=NN2C(=O)CCCC(=O)O)cc1OC (configuration not stated)
[36] Cc1ccc(S(=O)(=O)NNC(=O)CSc2ncnc3scc(C)c23)cc1
[37] NC1=NC(c2ccccc2Cl)CC(=O)N1 (configuration not stated)
[38] COc1ccc(C2c3c(oc4cc(C)c(C)cc4c3=O)C(=O)N2CCCN(C)C)cc1OC (configuration not stated)
[39] COC(=O)c1cc(S(=O)(=O)Nc2cccc(-c3cnco3)c2)oc1C
[40] O=C(CN1C(=O)c2cccnc2Sc2ccccc21)NC1CC1

compound no.	33	34	35	36	37	38	39	40
HIV TAR-Tat	x	x	-0.12	x	-0.06	0.81	x	1
CDC25B-CDK2 inh	-1.6	-1.7	0.01	-12	x	-0.43	0.44	x

[41] N#CCNC(=O)OCc1ccccc1
[42] CC(C)(C)C(=O)Nc1ccc2[nH]c(=O)sc2c1
[43] CC1CCN(CCCNC(=O)c2cc(=O)[nH]c3ccc(S(=O)(=O)N4CCCCCC4)cc23)CC1
[44] Fc1cc(Br)ccc1Nc1nc2ccccc2n2cnnc12
[45] Cc1cccc(N2CCN(c3c(-c4ccc(C(C)C)cc4)c(=O)c3=O)CC2)c1C
[46] CCN(CC)CCNC(=O)c1cc2c(=O)n(C)c3cc(Cl)ccc3c2s1
[47] CC(C)Cc1nn2c(=O)cc(COC(=O)c3cccc(Cl)c3)nc2s1
[48] Cc1ccc2c(=O)cc(C(=O)NC3CCS(=O)(=O)C3)oc2c1 (configuration not stated)

compound no.	41	42	43	44	45	46	47	48
HIV TAR-Tat	x	0.61	x	x	3.8	0.16	-0.11	1.1
CDC25B-CDK2 inh	-1.2	x	-1.6	-1.6	x	1	x	-2.1

[49] CCC(C)[C@H](N)c1nnc(SC)o1 (some centres not stated)
[50] c1ccc(CC2CCN(CCCNc3nc4ccccc4n4nnnc34)CC2)cc1
[51] O=C(COc1ccccc1)N1CCc2cc3ccccc3nc21
[52] Cn1c(=O)c2c(-c3ccc(Br)cc3)n(-c3ccccc3)cc2n(C)c1=O
[53] CCC(=O)N1c2ccccc2NC2=C(C(=O)CC(C)(C)C2)C1c1c[nH]c2ccccc12 (configuration not stated)
[54] CC1=C(C(=O)Nc2cc(C)ccn2)C(c2ccc(Br)cc2)C2=C(CC(C)(C)CC2=O)N1 (configuration not stated)
[55] CC(=O)NC1=NC(=O)/C(=C\c2ccc(-c3ccc(Cl)c(C(=O)O)c3)o2)S1
[56] CCCC(O)c1nc2ccccc2n1Cc1ccccc1Cl (configuration not stated)

compound no.	49	50	51	52	53	54	55	56
HIV TAR-Tat	-1.7	-0.25	0.64	0.52	x	0.06	x	0.22
CDC25B-CDK2 inh	0.46	-0.97	-2.1	-0.9	-0.36	-1.4	2.8	-1.5

[57] CC(C)CCNc1nc(NCc2ccccc2)c2cnn(C)c2n1
[58] CCOC(=O)CNC(=O)N1CCOc2ccccc21
[59] CN(C)CC[C@H](c1ccc(Cl)cc1)c1ccccn1
[60] CN(C)c1cc(Nc2ccccc2)c2c(=O)n(C)c(=O)n(C)c2n1
[61] N#CCCN(Cc1cccs1)C(=O)c1cccs1
[62] COc1ccc(OCCn2c(C)nc3cc(C)c(C)cc32)cc1
[63] CC(C)N(Cc1cccs1)C(=O)Cn1c(=O)oc2ccccc21
[64] O=C(Nc1cccc(Cl)c1)c1cnc2sc(N3CCCC3)nn2c1=O

compound no.	57	58	59	60	61	62	63	64
HIV TAR-Tat	0.65	1.7	-0.02	x	x	1.7	0.2	-0.45
CDC25B-CDK2 inh	x	x	-0.21	-1.6	0	-0.63	x	x

[65] COc1ccccc1NC(=O)N1CCCC1c1ccco1 (configuration not stated)
[66] COC(=O)c1c(NC(=O)c2csnn2)sc2c1CCCC2
[67] O=C(O)/C=C/NNC(=O)c1ccc([N+](=O)[O-])cc1
[68] Clc1ccc(C2=Nn3c(nnc3-c3cccnc3)SC2)cc1
[69] COc1ccc(C(N)=O)cc1OC1CCCC1
[70] COc1ccc(C(=O)Nc2nnc3n2CCS3)cc1OC
[71] Cc1ccc(CNc2nc(N)c([N+](=O)[O-])c(N3CCCCC3)n2)cc1
[72] O=C(NNC(=S)Nc1ccc2c(c1)OCCO2)c1ccco1

compound no.	65	66	67	68	69	70	71	72
HIV TAR-Tat	0.75	0.27	x	0.21	x	0.65	0.26	x
CDC25B-CDK2 inh	-2.6	-2.5	-2.1	3.3	-1.6	x	x	-2.4

[73] Cc1c(NS(=O)(=O)c2ccc3c(c2)oc(=O)n3C)c(=O)n(-c2ccccc2)n1C
[74] S=c1[nH]c(-c2ccc(Cl)cc2)cn1-c1ccccc1
[75] Cc1c(-c2nc(-c3ccc(Cl)cc3)no2)nnn1-c1ccccc1
[76] COc1ccc(OC)c(NC(=O)Cn2cc(C(=O)C3CC3)c3ccccc32)c1
[77] O=C(Cn1nc(-c2ccco2)ccc1=O)Nc1ccc(F)cc1F
[78] Cc1nnc(Sc2c(-c3ccccc3)c3ccc(Cl)cc3[nH]c2=O)s1
[79] CCOc1ccc(-c2nnc(SCc3cc(=O)n4c(C)csc4n3)o2)cc1
[80] CC1=C(C(=O)NCCN(C)C)C2(CCN(S(C)(=O)=O)CC2)OC1=O

compound no.	73	74	75	76	77	78	79	80
HIV TAR-Tat	x	x	0.82	0.53	1.1	0.18	2.1	1.3
CDC25B-CDK2 inh	-1.1	-1.3	x	0.11	0.98	-2	-1.9	x

[81] Cc1ccc(-c2cc3nccc(-c4ccccc4O)n3n2)cc1
[82] Cc1cc(NC(=O)CN(C2=NC3CS(=O)(=O)CC3S2)c2ccccc2F)n[nH]1 (configuration not stated)
[83] Cc1ccc(-c2noc(-c3ccc(C)cc3)n2)cc1
[84] CSc1sc(NC(=O)Nc2ccc(F)c(Cl)c2)c(-c2ccc(Cl)cc2)c1C#N
[85] Cc1ccc(NS(=O)(=O)c2cc(-c3noc(C)n3)cs2)c(Cl)c1
[86] Cn1c(=O)oc2cc(S(=O)(=O)N3CCC(C(=O)N4CCc5ccccc5C4)CC3)ccc21
[87] CCCCC(=O)OC1=C(C(=O)OC)N(CC)S(=O)(=O)c2ccccc21
[88] COc1ccc(-n2nc3c(c2NC(=O)c2ccco2)CS(=O)C3)cc1 (configuration not stated)

compound no.	81	82	83	84	85	86	87	88
HIV TAR-Tat	-0.61	0.87	0.63	x	0.65	x	-0.53	x
CDC25B-CDK2 inh	-0.56	0.84	-1.6	-1.5	x	-1.4	-2.4	-0.23

[89] O=C(Oc1cccc(-n2cnnn2)c1)c1ccc(Br)cc1
[90] CCOC(=O)CCC(C#N)(c1cccs1)N1CCOCC1 (configuration not stated)
[91] O=C1C(Oc2ccccc2)C(c2cccs2)N1Cc1ccc2c(c1)OCO2 (configuration not stated)
[92] O=C(NCCc1ccsc1)c1noc2c1CCc1sccc1-2
[93] COc1ccc(-c2nnc3ccc(SCC(=O)Nc4nccs4)nn23)cc1OC
[94] Cc1cc(-c2ccc(C(C)C)c(S(=O)(=O)Nc3ccc(C)c(N(C)C)c3)c2)on1
[95] CN(NC(=O)C(C)(C)C)C(=S)SCc1c(F)cccc1Cl
[96] CN(Cc1cc(=O)[nH]c2ccccc12)C(=O)c1ccco1
[97] N#CC1=C(N)OC2=C(C(=O)CC(c3ccccc3)C2)C1C1CCCCC1 (configuration not stated)
[98] O=C1CCCc2cc(S(=O)(=O)N3CCCC3C(=O)N3CCOCC3)ccc2N1 (configuration not stated)
[99] Cc1cccc(Nc2nc(NCCN3CCCC3)nc3c2cnn3C)c1

compound no.	89	90	91	92	93	94	95	96	97	98	99
HIV TAR-Tat	-0.52	x	-1.2	0.54	x	0.92	x	0.39	x	2.7	1.6
CDC25B-CDK2 inh	-0.83	-1.7	0.6	x	0.08	x	-1.8	-1.5	0.14	x	x

# Structures above that contain a CF3 group (two):
[4] Cn1ncc(NC(=O)O/N=C(\N)c2cc(C(F)(F)F)cc(C(F)(F)F)c2)c1-n1cccc1
[33] CNC(=O)NNC(=O)c1csc(-c2ccc(C(F)(F)F)cc2Cl)n1

compound no.	4	33
HIV TAR-Tat	x	x
CDC25B-CDK2 inh	-3.4	-1.6

# Bioassay records deposited in PubChem BioAssay by Center for Chemical Genomics, University of Michigan.
